# Scp1 inh: inhibitors of human Scp-1 phosphatase. Q9GZU7. Recombinant Scp1, phosphopeptide, malachite green phosphate absorbance. inhibition, % at 20 µM. actives 0.88% (n = 340,000);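 active means inhibition above about 50% at 20 µM, limit read from the data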;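 further: plate controls were DMSO wells with enzyme for no effect and wells lacking enzyme for full effect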
#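 System: truncated SCP-1 phosphatase (76-261aa); medium: Tris acetate buffer pH 5.5 with MgCl2 and Tween-20; incubation: 45 min room-temperature reaction, 5 min colour, 30 min stabiliser; compound: single 20 µM dose, 1% DMSO; reagent: Phosphorylated 17-residue peptide substrate; read-out: % inhibition at 20 µM; technique: colorimetric free-phosphate detection, absorbance 630 nm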
# CendR NRP1 mod: alters CendR peptide binding to human NRP-1; FAM-RPARPAR peptide binding to NRP-1, fluorescence polarization; O14786; actives 0.85% (n = 360,000); AID 602438; inhibition, % at 25 µM;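 active means inhibition or corrected inhibition above about 18%, plus a signal ratio from 0.5 to 1.5, limit read from the data, passing the limit was not always enough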; further: strong numbers were not always called active
# LMPTP block: blocks human LMPTP phosphatase; P24666; recombinant LMPTP-A, OMFP fluorogenic substrate, fluorescence intensity; inhibition, % at 20 µM; actives 0.22% (n = 360,000); AID 651560;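 active means compounds that cut the enzyme signal by at least half of the control window in the single-dose screen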;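 further: plate controls were DMSO wells with enzyme plus substrate for no effect and substrate without enzyme for full effect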
#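 Test system: LMPTP-A, protein tyrosine phosphatase of low molecular weight; Input: 0.625 nM enzyme; Incubation: 50 min dark incubation at room temperature; Signal: endpoint fluorescence intensity from OMFP dephosphorylation; Read-out basis: % inhibition versus control wells.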
# STEP inh: inhibitors of human striatal-enriched phosphatase STEP. recombinant STEP, OMFP fluorogenic substrate, fluorescence. inhibition, % at 20 µM. actives 0.25% (n = 360,000);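 active means inhibition at 20 µM, scaled per plate between control wells, above about 37%, limit read from the data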;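 further: 0% = DMSO with enzyme and substrate and 100% = substrate only without enzyme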
# Target sequence (P54829 whole entry, looked up): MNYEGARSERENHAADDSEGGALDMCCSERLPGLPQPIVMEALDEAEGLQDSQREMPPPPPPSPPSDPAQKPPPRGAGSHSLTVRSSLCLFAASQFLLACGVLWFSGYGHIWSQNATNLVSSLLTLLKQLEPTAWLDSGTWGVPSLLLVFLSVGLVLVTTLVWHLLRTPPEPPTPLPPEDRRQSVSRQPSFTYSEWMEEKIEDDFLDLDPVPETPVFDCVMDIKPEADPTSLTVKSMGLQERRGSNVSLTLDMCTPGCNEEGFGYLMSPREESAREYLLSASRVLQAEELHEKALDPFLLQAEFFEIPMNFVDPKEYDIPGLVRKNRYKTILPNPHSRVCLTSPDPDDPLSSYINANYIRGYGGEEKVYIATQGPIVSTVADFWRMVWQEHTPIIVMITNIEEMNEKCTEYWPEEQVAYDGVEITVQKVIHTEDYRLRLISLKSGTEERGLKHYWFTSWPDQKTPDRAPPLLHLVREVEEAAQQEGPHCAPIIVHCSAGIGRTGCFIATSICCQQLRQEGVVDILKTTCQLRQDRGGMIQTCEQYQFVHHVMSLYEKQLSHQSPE
#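 Material: STEP (striatal-enriched tyrosine phosphatase) enzyme, cell-free | Medium: 50 mM Bis-Tris pH 6.0 with 2.5 mM DTT and 0.005% Tween 20 | Read-out: Percent inhibition scaled to no-enzyme and uninhibited-enzyme controls, plate-pattern corrected | Signal: Fluorescence read at 480 nm ex / 540 nm em | Times: 20 min reaction, room temperature, in the dark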
# Neddyl block: cullin neddylation inhibition. P61081+Q13564. TR-FRET cullin neddylation, biochemical. calls only at 25 µM. actives 0.58% (n = 360,000). AID 651699; in the data active means inhibition above about 36%
# An asterisk follows results filed as active; i = inactive; . = not tested or not shown; & = joins results of further samples. Some of the compounds tested; count on the stated rates, not on these rows.
No.	LMPTP block	Neddyl block	CendR NRP1 mod	STEP inh	Scp1 inh	SMILES
1	-5.8	i	3.1	1.3	-3.5&-3.8	CN1CCN(CCCN2c3ccccc3Sc3ccc(Cl)cc32)CC1
2	-3.1	i	4.7	-1.2	-6.3	CN(C)CCN(Cc1cccs1)c1ccccn1
3	-1.1	i	-2.1	0.5	-3.8	CN1CCCC1CCOC(C)(c1ccccc1)c1ccc(Cl)cc1 (stereo not drawn)
4	-3.2	i	24.8*	-2.0	4.7	C#Cc1cccc(N2C(=O)C3C4C=CC(C3C2=O)C2C(=O)N(c3cccc(C#C)c3)C(=O)C42)c1 (stereo not drawn)
5	0.9	i	-1.2	-2.0	-11.3	O=C1C(CCS(=O)c2ccccc2)C(=O)N(c2ccccc2)N1c1ccccc1 (stereo not drawn)
6	-0.3	i	7.8	2.2	-1.2	NNC(=O)c1nc(-c2ccccc2)cc(-c2ccccc2)n1
7	-2.1	i	6.0	0.9	-11.7	OCCN1CCN(CCCN2c3ccccc3Sc3ccc(C(F)(F)F)cc32)CC1
8	5.2	i	2.6	0.2	1.1	O=C(Cn1c(C(=O)c2ccccc2)nc2ccccc21)c1ccc(Cl)cc1
9	0.5	i	0.9	5.9	31.7	Cc1nc2n(c(=O)c1CCN1CCC(c3noc4cc(F)ccc34)CC1)CCCC2
10	-2.0	.	17.8	-0.4	-7.6	C=C(CN(C)C)C(=O)c1ccc2c(c1)OCO2
11	1.5	i	-13.0	0.1	-1.3	O=c1c(O)c(-c2ccc(O)c(O)c2)oc2cc(O)ccc12
12	1.3	i	1.1	-2.7	-8.7	CC(=O)c1cn(S(=O)(=O)c2ccccc2)c2ccccc12
13	-2.5	i	-4.3	-0.6	-13.1	C=CCSc1n[nH]c(-c2ccccc2)n1
14	-2.1	i	5.6	-3.4	-4.2	c1ccc(CN2CCC3CC2c2cc(N4CCOCC4)ccc23)cc1 (stereo not drawn)
15	0.1	i	-5.8	1.3	2.5	CN1C2CCC1CC(OC(c1ccccc1)c1ccccc1)C2 (stereo not drawn)
16	-0.1	i	-5.0	-0.8	11.4	CN(C)C(=O)C(CCN1CCC(O)(c2ccc(Cl)cc2)CC1)(c1ccccc1)c1ccccc1
17	-2.1&-2.9	i	-8.4&6.2	-4.0&5.6	-6.3&-17.2	Cc1ccccc1C(OCCN(C)C)c1ccccc1 (stereo not drawn)
18	-2.1	i	1.7	-1.3	4.7	O=c1c(Cl)c(O)ccn1C1OC(CO)C(O)C1O (stereo not drawn)
19	0.6	i	-5.0	-0.7	2.1	CCN1CCN(C(=O)N[C@@H](C(=O)N[C@@H]2C(=O)N3C(C(=O)O)=C(CSc4nnnn4C)CS[C@H]23)c2ccc(O)cc2)C(=O)C1=O
20	-0.4	i	14.4	2.7	5.7	Nc1ccn([C@H]2CS[C@@H](CO)O2)c(=O)n1
21	-2.8	i	5.0	-4.0	26.6	CNCC[C@@H](Oc1ccc(C(F)(F)F)cc1)c1ccccc1
22	2.8	i	-5.7	2.4	-2.3	O=C1NC[C@H](c2ccccc2)OC(=O)[C@@H](Cc2ccc(F)cc2)CC/C=C/C[C@@H]1CC(=O)N(CCO)Cc1ccccc1
23	-1.0	i	-2.3	-2.1	-1.2	CNCCC(Oc1ccc(C(F)(F)F)cc1)c1ccccc1 (stereo not drawn)

# Another view of five compounds above:
# Screens in order – LMPTP block | Neddyl block | CendR NRP1 mod | STEP inh | Scp1 inh
14: c1ccc(CN2CCC3CC2c2cc(N4CCOCC4)ccc23)cc1 (stereo not drawn)
 : -2.1 | i | 5.6 | -3.4 | -4.2
2: CN(C)CCN(Cc1cccs1)c1ccccn1
 : -3.1 | i | 4.7 | -1.2 | -6.3
4: C#Cc1cccc(N2C(=O)C3C4C=CC(C3C2=O)C2C(=O)N(c3cccc(C#C)c3)C(=O)C42)c1 (stereo not drawn)
 : -3.2 | i | 24.8* | -2.0 | 4.7
21: CNCC[C@@H](Oc1ccc(C(F)(F)F)cc1)c1ccccc1
 : -2.8 | i | 5.0 | -4.0 | 26.6
1: CN1CCN(CCCN2c3ccccc3Sc3ccc(Cl)cc32)CC1
 : -5.8 | i | 3.1 | 1.3 | -3.5&-3.8

# 4 of the compounds above, with values under each structure.
# Values run as follows: LMPTP block	Neddyl block	CendR NRP1 mod	STEP inh	Scp1 inh
1) CN1CCN(CCCN2c3ccccc3Sc3ccc(Cl)cc32)CC1
→ -5.8	i	3.1	1.3	-3.5&-3.8
8) O=C(Cn1c(C(=O)c2ccccc2)nc2ccccc21)c1ccc(Cl)cc1
→ 5.2	i	2.6	0.2	1.1
6) NNC(=O)c1nc(-c2ccccc2)cc(-c2ccccc2)n1
→ -0.3	i	7.8	2.2	-1.2
22) O=C1NC[C@H](c2ccccc2)OC(=O)[C@@H](Cc2ccc(F)cc2)CC/C=C/C[C@@H]1CC(=O)N(CCO)Cc1ccccc1
→ 2.8	i	-5.7	2.4	-2.3

# Screening results (PubChem)
